NPYLR7 ag – activates Aedes aegypti NPYLR7 receptor; HEK293T NPYLR7/Galpha15, GCaMP6s calcium fluorescence; activation, % at 10 µM; 0.15% of 270,000 active; in the data active = activation above about 40%;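 note: 0% = vehicle and 100% = reference agonist at the receptor; some compounds past the cut are filed as inactive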
NPYLR7 ag max-min – second read-out of NPYLR7 ag, no call of its own (marks repeat the call); activation, %; measured here: Max-Min RFU normalised activation; some inactives read as strong as hits;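 span of the calcium signal over five minutes; 0% = vehicle and 100% = native peptide agonist; compound fluorescence can raise it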
The depositor's hits bear a star; & = joins results of further samples. An excerpt; rates above refer to the full screens.

SMILES	NPYLR7 ag	NPYLR7 ag max-min
O=C(c1ccc(NS(=O)(=O)c2ccc3c(c2)OCCCO3)cc1)N1C2CCC1CC2	2	8
O=C(c1nn(Cc2ccc(OC(F)F)cc2)c2ccccc12)N1CCN(CCO)CC1	16	18
Cc1[nH]c2ccc(O)cc2c1CCN	2	-23
N#CC[Se]c1nc(N)cc(N)c1C#N	4	2
CC1=C(C(=O)OC(C)C)C2(C(=O)Nc3ccccc32)C(C(=O)OC(C)C)C(=N)O1 (stereo not given)	1	0
CNCCc1c[nH]c2ccc(O)cc12	3	-30
c1ccc2sc(Cc3cn4ccccc4n3)nc2c1	7	13
Nc1ccc(CC(N)c2csc(Nc3ncccn3)n2)cc1 (stereo not given)	1	4
CC(C)(C)OC(=O)C1C(=N)OC2=C(C(=O)CCC2)C12C(=O)Nc1ccc(Br)cc12 (stereo not given)	-8	-11
O=C(c1ccc2c(c1)CCNC2)N1CCCC(O)(CO)C1 (stereo not given)	20	7
CCOC(=O)[C@H]1CN(C(=O)C23CC4CC(CC(C4)C2)C3)[C@]2(C)C(=O)Nc3ccccc3[C@H]12	-5	5
Cc1cccc(COC(CN2CCN(C(=O)Cc3ccccc3)CC2)c2ccc(Cl)cc2)c1 (stereo not given)	11	6
COC(=O)c1ccc(C(=O)OC)c(NC(=O)c2cccn(Cc3ccccc3C)c2=O)c1	14	5
COCCN(CC(=O)Nc1nc(CC(=O)N2CCN(Cc3ccc4c(c3)OCO4)CC2)cs1)C(=O)c1ccco1	11	24
O/N=C1/C2CN3CCN(C2)CC1(c1ccccc1)C3	-10	-12
Cc1[nH]c2ccc(Cl)cc2c1C1=CCNCC1	-12	-15
Cc1ccccc1CC(=O)N1CCN(Cc2cccc(-c3noc(C4CCCC4)n3)c2)CC1	28	17
CN1C(CC(O)c2ccccc2)CCCC1CC(O)c1ccccc1 (stereo not given)	-4	-12
CCOP(=S)(NC(C)(C)C)OCC	-14	-20
CCc1csc(N2CCN(C(C)C)CC2)n1	17	14
C=CCN1C(=O)NC(=O)/C(=C/c2ccco2)C1=O	7	5
N#CC1C(=N)Oc2c(c(=O)oc3ccccc23)C1c1ccc(F)cc1 (stereo not given)	-7	-11
CC1(C)C(=O)[C@@H]2O[C@@H]2[C@@]2(C)C1C[C@@H](O)[C@]1(C)C2CC[C@@]2(C)[C@H](c3ccoc3)OC(=O)C3OC321 (stereo not given in full)	2	2
CN1CCN2C[C@@H](NC(=O)c3onc4ccccc34)C[C@H]2C1	-7	-9
CCCCn1c(=O)c(C(=O)Nc2ccccc2)c(O)c2ccccc21	-4	-10
C=c1ccccc1=C1N=C(c2cccnc2)NO1	0	1
Cc1ccc(C(c2ccccc2)N2CCN(C(=O)Cc3ccccc3)CC2)cc1 (stereo not given)	16	21
Cc1ccc(CN2CCCC(C(=O)c3ccc4c(c3)OCO4)C2)cc1C (stereo not given)	16	11
O=[N+]([O-])c1ccccc1CN1CCN(c2ccccc2)CC1	1	1
Cc1c(N=Nc2c(O)[nH]c(=O)[nH]c2=O)c(=O)n(-c2ccccc2)n1C	-3	-10
Cc1cc2c(c(=S)[nH]1)C(=O)O/C2=C\c1c(C)[nH]c(C#N)c1C	-1	-3
O=C(Nc1ccc2[nH]cc(CCN3CCCC3)c2c1)C1(c2ccc(Cl)cc2)CCCC1	1	7
NCCc1ccc(Br)o1	0	-4
CN1CCC(N(C)c2ccccc2CNCC2(O)CCOCC2)CC1	3	2
CCN(CC)S(=O)(=O)c1ccc(Cn2nc(C(=O)Nc3ccc(N4CCCCC4)cc3)c3ccccc32)cc1	17	21
COc1cc2occc2c2oc(=O)ccc12	-4&6	-11&7
O=P(Nc1cccc2cccnc12)(Oc1ccccc1F)Oc1ccccc1F	4	8
CNC(=O)OCC[N+](C)(C)C	4	9
N[C@@H](Cc1ccc(N(CCCl)CCCl)cc1)C(=O)O	-4	-8
CC(Cc1ccccc1)N(C)C (stereo not given)	-13	-25
COc1ccc2c(c1)c(C(=O)Nc1nn[nH]n1)c(C)n2C1CCCC1	4	-1
COc1cccc(C(C)NCC(O)c2ccc(C)cc2)c1 (stereo not given)	6	2
C=C(C)[C@H]1Cc2c(ccc3c2O[C@@H]2COc4cc(OC)c(OC)cc4[C@@H]2C3=O)O1	-5&0	-10&12
CC(c1ccncc1)N(C)C(=O)Nc1ccc(C#N)c(C(F)(F)F)c1 (stereo not given)	-1	15
Cc1cc[n+]2cc(-c3ccc(OC(=O)N(C)C)cc3)n(C)c2c1	4	4
O=C(Nc1ccc2[nH]cc(CCN3CCOCC3)c2c1)C1C[C@H]1c1ccccc1 (stereo not given in full)	6	16
Cc1ccc(Cl)cc1NP(=O)(OCC(F)(F)F)OCC(F)(F)F	-7	1
CCN(CCN1CCCC1)C(=O)C1C(C)(C)C1(C)C	2	-2
Clc1ccc(C2=CCCC3CCC2N3)cn1 (stereo not given)	5	-5
CCCSc1ncc(CN2CCN3CCN(C)CC3C2)cn1 (stereo not given)	26	11

More structures:
SMILES	NPYLR7 ag	NPYLR7 ag max-min
COC1=C[C@@H]2C3=C([C@@H]2C1=O)[C@@H](NC(C)=O)CCc1cc(OC)c(OC)c(OC)c13	-3	-8
CCc1ccccc1NC(=O)c1cccn(Cc2ccccc2F)c1=O	17	7
c1ccc(C(OCCN2CCCN3CCCC3C2)c2ccccc2)cc1 (stereo not given)	-1	-18
CCC1CN(Cc2ccc(Cl)cc2F)CCN1C(C)C (stereo not given)	-4	-11
Cn1nc(C(C)(C)C)c2c1N(CC(=O)NCc1cccnc1)C(=O)CSC2c1ccccc1Cl (stereo not given)	8	16
N#CC1C(=N)Oc2c(c(=O)oc3ccccc23)C1c1ccc(Cl)cc1 (stereo not given)	4	-4
CCCCn1c(=O)c(C(=O)Nc2ccccn2)c(O)c2ccccc21	7	6
CN1C2CCC1CC(O)C2 (stereo not given)	12	0
CN(C)CC1CCCCC1OC(=O)c1ccc(Cl)c(Cl)c1 (stereo not given)	2	0
COc1ccc2c(c1)c(C(=O)NCc1cnc(C)cn1)nn2Cc1ccc(C(=O)N(C)C)cc1	2	19
CCN(CC)C(=O)c1ccc(C2=CC3(CCNCC3)Oc3cccc(O)c32)cc1	4	3
CNC(=O)Oc1cccc2c1OC(C)(C)C2	-5	-11
COc1cc2c(cc1OC)CN(C1CCCN(C(=O)Cc3ccccc3)C1)CC2 (stereo not given)	27	39
O=C(NCC1CCOCC1)c1cnc(Nc2ccc(Cl)cc2Cl)nc1C(F)(F)F	13	0
C[C@]12CCC(=O)C=C1CCC1C2CC[C@@]2(C)C1CC[C@@H]2O (stereo not given in full)	-8	-10
COCC(=O)N1CCCN(C)C2(CCN(C)CC2)C1	4	2
CCOc1ccc(CN2CCC3(CC2)C(=O)N(C)c2ccccc23)cc1CO	-2	11
CCOC(=O)N1CCN(C2CCCN(C(=O)Cc3ccccc3Cl)C2)CC1 (stereo not given)	1	1
CN[C@@H](C)[C@@H](O)c1ccccc1	-4&4	-6&-1
Cc1cc(C(=O)N2CCN(C)C3(CCN(C)CC3)C2)nc(C)n1	15	15
O=c1[nH]c2ccccc2c(=O)n1CC1(N2CCOCC2)CCCCC1	-17	-18
COc1ccccc1CC(C)N(C)C(=O)NC1C2CCOC2C1(C)C (stereo not given)	1	1
C[N+]1(C)CCOC(O)(c2ccc(-c3ccc(C4(O)C[N+](C)(C)CCO4)cc3)cc2)C1 (stereo not given)	-5&-2	-10&-34
CC(N)C(=O)c1ccccc1 (stereo not given)	-14	-27
CCNc1ccc(P(=S)(CC)CC)cc1	-4	0
CNC(=O)C(C1CCCC1)N1CCN(C(=O)COc2ccccc2)CC1 (stereo not given)	-9	3
CCC(C)n1[nH]c(=O)c2c1NC(=O)CSC2c1ccc(OC(C)C)cc1 (stereo not given)	3	3
CC(CN1CCN(C)CC1)Nc1cccc(F)n1 (stereo not given)	-4	-10
n1onc2c1NC1Nc3nonc3NC1N2 (stereo not given)	-6	-13
CCC1(CC)C(=O)C=CNC1=O	-7&-1	-16&-5

Sorted by heavy-atom count (ascending): some entries from above
SMILES	NPYLR7 ag	NPYLR7 ag max-min
CC(N)C(=O)c1ccccc1 (stereo not given)	-14	-27
CCC1(CC)C(=O)C=CNC1=O	-7&-1	-16&-5
CCNc1ccc(P(=S)(CC)CC)cc1	-4	0
CNC(=O)Oc1cccc2c1OC(C)(C)C2	-5	-11
CC(CN1CCN(C)CC1)Nc1cccc(F)n1 (stereo not given)	-4	-10
COCC(=O)N1CCCN(C)C2(CCN(C)CC2)C1	4	2
C[C@]12CCC(=O)C=C1CCC1C2CC[C@@]2(C)C1CC[C@@H]2O (stereo not given in full)	-8	-10
Cc1cc(C(=O)N2CCN(C)C3(CCN(C)CC3)C2)nc(C)n1	15	15
COc1ccccc1CC(C)N(C)C(=O)NC1C2CCOC2C1(C)C (stereo not given)	1	1
CNC(=O)C(C1CCCC1)N1CCN(C(=O)COc2ccccc2)CC1 (stereo not given)	-9	3
CCOC(=O)N1CCN(C2CCCN(C(=O)Cc3ccccc3Cl)C2)CC1 (stereo not given)	1	1
CCOc1ccc(CN2CCC3(CC2)C(=O)N(C)c2ccccc23)cc1CO	-2	11
O=C(NCC1CCOCC1)c1cnc(Nc2ccc(Cl)cc2Cl)nc1C(F)(F)F	13	0
C[N+]1(C)CCOC(O)(c2ccc(-c3ccc(C4(O)C[N+](C)(C)CCO4)cc3)cc2)C1 (stereo not given)	-5&-2	-10&-34
COc1ccc2c(c1)c(C(=O)NCc1cnc(C)cn1)nn2Cc1ccc(C(=O)N(C)C)cc1	2	19

Later entries.
SMILES	NPYLR7 ag	NPYLR7 ag max-min
CCCC1=C(C(=O)OCC)C2(C(=O)Nc3ccccc32)C(C(=O)OC(C)(C)C)C(=N)O1 (stereo not given)	1	0
COc1cccc([C@@]2(O)CCCC[C@@H]2CN(C)C)c1	10	7
CC(O)CN1CC=C(c2cnn(-c3ccc(C(C)C)cc3)c2)CC1 (stereo not given)	23	17
Cc1cc(NC(=O)c2cccn(Cc3c(F)cccc3Cl)c2=O)c2ccccc2n1	12	2
CCC(NC)c1nc2ccccc2c(=O)n1-c1cccc(Cl)c1 (stereo not given)	6	18
COCC1(NC(=O)C(C)N2CCCC2=O)CCCC1 (stereo not given)	-2	-10
OC12C3C4CC5C6C4C1C6C(C53)N2CCc1cccc(F)c1 (stereo not given)	-10	-12
CC(C)[C@@H]1C[C@@H]2C[C@H](N(CCO)C3CCCC3)C[C@@H]2CO1	2	12
CCOc1cncc(/C=C/CCNC)c1	8	11
CSc1ccc(C(=O)C2CCCN(Cc3cccc4c3OCO4)C2)cc1 (stereo not given)	3	3
Cc1c2ccncc2c(C)c2c1[nH]c1ccccc12	-2&16	-5&-2
COc1ccc(CC(=O)N2CCN(Cc3cccc(-c4noc(C5CCCC5)n4)c3)CC2)cn1	4	16
CC1CC(=O)CC2CCC3C4CCC(O)C4(C)CCC3C12C (stereo not given)	9	-2
CN1CCNC(=O)C12CCN(C(=O)COc1cccnc1)CC2	-7	-4
CC(=NNP(=S)(c1ccccc1)c1ccccc1)c1cccs1	3	1
CCC(C)c1ccc(-n2c(-c3c(C)cccc3C)nc3ccccc3c2=O)cc1 (stereo not given)	4	4
CC(=O)c1ccc(OC(C)C)c(Cc2c(O)[nH]c(=S)[nH]c2=O)c1	-1	-3
CN(C)c1ccc([P+](=O)c2ccc(N(C)C)cc2)cc1	-11	-16
NCCc1ccc(C(F)(F)F)cc1	-3	-6
CNC(C)c1nc2cc(Cl)ccc2c(=O)n1-c1ccc(C)cc1 (stereo not given)	-13	-5
CCn1nc(C)c(NC(=O)CNC(C)Cc2cnccn2)c1C (stereo not given)	3	1
Cc1cccnc1CC(C)NC1Cc2ccccc2C1 (stereo not given)	19	4
CC1CN=C(Nc2ccc(Cl)cc2)S1 (stereo not given)	5	5
CCOP1(=S)C(=C2N(C)c3ccccc3C2(C)C)C=NN1c1ccccc1 (stereo not given)	11	10
CC(C)(C)c1cc(C=C2C(=O)NC(=S)NC2=O)cc(C(C)(C)C)c1O	-3	-6
O=C(Nc1ccc2n(c1=O)C[C@H]1C[C@@H]2CN(c2ncccn2)C1)c1ccccc1	-8	-15
CSCC(=O)Nc1ccc2n(c1=O)C[C@H]1C[C@@H]2CN(C(=O)CSCC(=O)O)C1	-8	-17
c1ccc(C2CCNCC2)cc1	1	-1
COc1cc(C=C2C(=O)NC(=O)NC2=O)ccc1OCc1ccc(C(=O)O)cc1	-4	-4
O=C(c1ccc(Cl)cc1)C1CCCN(C2CCSCC2)C1 (stereo not given)	-21	-27
Cc1ncc(CO)c(CN2CCC3(CCN(C)CC3)C2)c1O	2	1
COc1ccc(N2CCN3c4ccc([N+](=O)[O-])cc4CC(C(=O)O)C3C2)cc1 (stereo not given)	22	16
Fc1ccc(C(O/N=C2\CN3CCC2CC3)c2ccc(F)cc2)cc1	7	11
COC(=O)N1CC2CC(C1)c1cccc(=O)n1C2 (stereo not given)	9	7
CCCCOC(=O)C1CN1C(CC)C(=O)OC (stereo not given)	-11	-16
COC(=O)c1ccccc1N=Cc1c(O)[nH]c(=O)[nH]c1=O	3	2
O=C1NC(=O)c2c1c1c3ccccc3n3c1c1c2c2ccccc2n1C1CCC3O1	12	14
CCOP(=O)(CN(CC)CC)OCC	-12	-16
Cc1nc(CC(=O)N(CCN2CCCC2)Cc2ccccc2)cs1	5	0
CN1C[C@H](CNC(=O)OCc2ccccc2)C[C@@H]2c3cccc4c3c(cn4C)C[C@H]21	-3&-2	-7&-5
O=c1[nH]ccc2ccc(-c3cccc4c3CCNC4)cc12	6	5
CCCC[n+]1cc(NC(=O)c2ccccc2Br)on1	-1	-1
CC1(C)C2C[C@@H](O)[C@]3(C)C(CC[C@@]4(C)[C@H](c5ccoc5)CC5OC543)[C@@]2(C)[C@@H](O)C[C@H]1O (stereo not given in full)	-5	-9
CC(Cc1cnccn1)NCC(=O)NC1CCCCCCC1 (stereo not given)	3	-3

High-throughput results: PubChem BioAssay, Fisher Drug Discovery Resource Center
